sEH inh = inhibitors of human soluble epoxide hydrolase; AID 707; recombinant human sEH enzymatic activity assay; actives 0.34% (n = 91,000); inhibition, % at 2 µM; in the data active means inhibition above about 80%; further: values of inactives mirror those of a sister screen read the other way; many of its hits are not listed in these tables
Target sequence (P34913 whole entry, looked up): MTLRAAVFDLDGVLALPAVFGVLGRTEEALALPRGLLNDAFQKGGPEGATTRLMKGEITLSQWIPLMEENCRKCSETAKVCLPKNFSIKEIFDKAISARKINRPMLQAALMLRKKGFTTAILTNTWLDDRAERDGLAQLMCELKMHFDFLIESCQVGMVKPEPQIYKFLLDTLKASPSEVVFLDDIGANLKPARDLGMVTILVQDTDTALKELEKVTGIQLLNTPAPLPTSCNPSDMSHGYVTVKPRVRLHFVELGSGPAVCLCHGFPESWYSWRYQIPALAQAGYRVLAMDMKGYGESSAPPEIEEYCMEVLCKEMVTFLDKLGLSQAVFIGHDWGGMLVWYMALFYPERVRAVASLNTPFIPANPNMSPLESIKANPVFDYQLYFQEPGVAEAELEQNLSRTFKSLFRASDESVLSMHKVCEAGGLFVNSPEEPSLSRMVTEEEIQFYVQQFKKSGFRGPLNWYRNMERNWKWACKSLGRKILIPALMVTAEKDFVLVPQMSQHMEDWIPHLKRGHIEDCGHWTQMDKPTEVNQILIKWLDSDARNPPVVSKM
hDAT+cocaine = modulates human dopamine transporter uptake under cocaine. LLC-PK1 hDAT cells, [14C]-dopamine uptake with cocaine IC80; actives deviate in either direction. B-score at 10 µM. actives 1.3% (n = 110,000). AID 449768;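 active means Z score or B-score, a plate-position-corrected score, falls beyond the plate's 99.7% confidence bounds, in either direction; inactive means both scores lie inside the 99.7% bounds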;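 further: scored against the spread of the other compound wells on the same plate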
PostGolgi ctrl = inhibits growth of the yeast control strain; efflux-deficient yeast background strain, growth absorbance A615, 16 h; inhibition, % at 10 µM; actives 5% (n = 98,000); AID 738
S1P2 agonist = agonists of human S1P2 receptor | O95136 | S1P2-expressing cell line, agonist reporter read-out | activation, % at 4.5 µM | actives 0.46% (n = 97,000) | AID 729; in the data active means activation above about 16%;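 further: 0% = vehicle low control and 100% = maximal reference agonist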
Target sequence (O95136 whole entry, looked up): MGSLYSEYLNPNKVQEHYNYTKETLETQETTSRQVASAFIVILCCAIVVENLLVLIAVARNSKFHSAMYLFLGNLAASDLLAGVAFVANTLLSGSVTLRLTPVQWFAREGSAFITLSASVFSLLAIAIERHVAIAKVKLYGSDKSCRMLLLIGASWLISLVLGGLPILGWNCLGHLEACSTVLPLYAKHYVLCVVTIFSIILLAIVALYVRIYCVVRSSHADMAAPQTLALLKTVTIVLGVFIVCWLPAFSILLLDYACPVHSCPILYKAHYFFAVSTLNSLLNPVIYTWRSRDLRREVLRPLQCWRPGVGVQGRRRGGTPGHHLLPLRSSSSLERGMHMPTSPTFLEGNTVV
sEH act = activators of human soluble epoxide hydrolase; P34913; purified human sEH enzymatic activity, activator screen; activation, % at 2 µM; actives 0.04% (n = 91,000); in the data active means activation above about 37%; further: values of inactives mirror those of a sister screen read the other way
S1P2 antag = blocks the human S1P2 receptor. O95136. cell-based S1P2 antagonist assay, inhibition at 5 uM. inhibition, % at 5 µM. actives 0.21% (n = 97,000); in the data active means inhibition above about 45%;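 further: CRE beta-lactamase reporter cells expressing human S1P2 stimulated with S1P; 0% = agonist at EC80 alone and 100% = agonist plus reference antagonist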
PostGolgi yeast = growth inhibition of a yeast mutant, post-Golgi transport screen; post-Golgi transport phenotypic cell assay; AID 739; actives 0.9% (n = 98,000); inhibition, % at 10 µM;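 further: yeast cells grown in 1536-well plates; yeast grown about 18 h at 30C before absorbance read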
An asterisk follows results filed as active; x = no result given. Unless noted, no stated cut-off is given here; in the data, active means inhibition above about 30%; inactive means the rest. These rows are one share of the data; the hit share may differ from the screen's.

Results follow in this order: sEH inh	hDAT+cocaine	PostGolgi ctrl	S1P2 agonist	sEH act	S1P2 antag	PostGolgi yeast
O=C(O)CCN=C1CCCc2ccccc2N1
 : -6	1.9	-4	0	8	7	6
O=C(/C=C/c1ccccc1)N/C(=C\c1ccco1)C(=O)NCCO
 : -10	-0.32	8	-4	12	-10	9
COc1ccc(CCNC(=O)CCCCCN2C(=O)c3ccccc3C2=O)cc1
 : 57	0.6	5	-6	-57	17	-1
Cc1ccc(NC(=O)COc2ccc(S(=O)(=O)N3CCOCC3)cc2)cc1
 : -8	0.27	4	-6	7	-6	-8
CSCC[C@H](NC(=O)CC(C)(C)C)c1nc2ccccc2[nH]1
 : x	-0.19	5	-7	x	8	-1
CCOC(=O)c1c(C)[nH]c(C(=O)CSc2nnc(-c3cccs3)n2Cc2ccccc2)c1C
 : x	1.4	7	-8	x	-37	-11
CC1(C)CC(=O)C2=C(C1)N(Cc1ccccc1)C(=O)C2(O)C(F)(F)F (stereo not given)
 : -7	0.48	-6	-7	11	3	3
O=S(=O)(c1cc(-c2nc3ccccc3s2)ccc1Cl)N1CCOCC1
 : 7	0.47	5	-5	-5	-7	22
Cc1[nH]nc(-c2ccc(OCc3cnn(-c4ccccc4)c3)cc2O)c1Oc1ccc(F)cc1
 : -9	-1	19	-5	8	-5	5
Cc1ccc(-n2c(CCC(=O)O)ccc2-c2cccs2)cc1C
 : 8	0.81	21	-6	-5	5	-14
O=C(Nn1cnc2ccccc2c1=O)c1ccc(F)cc1Cl
 : 1	-0.99	18	-7	0	17	-4
CCOC(=O)NC(CC(=O)O)c1ccc(OCC)cc1 (stereo not given)
 : -10	-0.43	-2	-5	8	2	-7
CCOc1ccc(N2CC(C(=O)NC(C)C)CC2=O)cc1 (stereo not given)
 : -3	0.11	5	-10	1	14	13
CCC(C)NC(=O)C1CC(c2ccc(OC)cc2)=NO1 (stereo not given)
 : -19	0.26	9	-2	18	7	-4
COc1cc2c3c(c1OC)C1(C=CC(=O)C=C1)CC3N(C(=O)c1ccccc1)CC2 (stereo not given)
 : -7	1.5	12	-2	7	-17	0

Individual results from the list.
Result of `CCOC(=O)NC(CC(=O)O)c1ccc(OCC)cc1` (stereo not given) in sEH inh: -10
Result of `Cc1ccc(-n2c(CCC(=O)O)ccc2-c2cccs2)cc1C` in hDAT+cocaine: 0.81
Result of `O=C(O)CCN=C1CCCc2ccccc2N1` in S1P2 antag: 7
Result of `COc1cc2c3c(c1OC)C1(C=CC(=O)C=C1)CC3N(C(=O)c1ccccc1)CC2` (stereo not given) in PostGolgi ctrl: 12
Result of `CSCC[C@H](NC(=O)CC(C)(C)C)c1nc2ccccc2[nH]1` in S1P2 antag: 8
Result of `Cc1[nH]nc(-c2ccc(OCc3cnn(-c4ccccc4)c3)cc2O)c1Oc1ccc(F)cc1` in hDAT+cocaine: -1

(cont.)
Results follow in this order: sEH inh	hDAT+cocaine	PostGolgi ctrl	S1P2 agonist	sEH act	S1P2 antag	PostGolgi yeast
COc1ccc(N2CCc3c(C)nc4c(OC)cc(OC)cc4c32)c(OC)c1
 : -1	x	7	-9	4	3	14
C/C(CCc1ccc2c(c1)OCO2)=N\N=C1\NC(=O)CC(C(=O)Nc2ccccc2)S1 (stereo not given)
 : -1	0.9	-6	-2	1	-4	8
CCc1c(C(C)O)oc2ccc3c(C)cc(=O)oc3c12 (stereo not given)
 : 10	0.98	1	-5	-12	-12	-7
CCC(C)[C@H](NC(=O)NCc1ccccn1)C(=O)OC (stereo not given in full)
 : 5	0.69	-4	-6	-4	6	3
CC(C)Sc1cc(N2CCCC2)nc(-c2ccc(F)cc2)n1
 : 7	-0.57	3	-5	-4	29	-1
O=C(CNS(=O)(=O)c1ccc(Br)cc1)N1CCOCC1
 : 8	0.28	9	-6	-6	-9	6
CCCC(O)(CCC)C(=O)NNc1ccccc1
 : 6	-2.2	-9	0	-5	10	0
CN1/C(=C/C=C(/C#N)C(N)=O)C(C)(C)c2ccccc21
 : -6	-0.73	0	-4	8	0	-8
COC(=O)c1cn(NC(=O)C2CCC(C(C)(C)C)CC2)c(=O)c2ccccc12 (stereo not given)
 : -7	1.4	11	-6	4	-9	15
COc1ccc(NC(=O)c2ccc3c(=O)n(Cc4ccco4)c(=S)[nH]c3c2)c(OC)c1
 : 5	0.43	18	-2	-5	-2	0
O=C(NC(Cc1c[nH]c2ccccc12)c1nnc2n1CCCCC2)c1cccs1 (stereo not given)
 : -1	-0.02	x	-1	3	-2	x
COc1c2c(nc3ccccc13)OC(C(C)(O)CO)C2 (stereo not given)
 : -7	-0.28	9	-2	1	-9	0
Cc1nc2nc(C)c(CCC(=O)NC(C)c3ccc4c(c3)OCCO4)c(C)n2n1 (stereo not given)
 : -11	-0.82	18	1	14	-13	15
CCCC(=O)N(c1ccc(F)cc1)C1C=CS(=O)(=O)C1 (stereo not given)
 : 10	-0.64	-2	-9	-10	13	-10
Cc1ccccc1OCC(=O)NNC(=O)Nc1ccc(Cl)cc1
 : 12	x	8	-3	-14	12	6
CCOc1ccc(/C=C/C(=O)c2c(O)c3ccccc3oc2=O)cc1
 : -4	x	9	-7	10	10	-16
Cc1ccc(C(=O)NCC(=O)NCC(=O)OCC(=O)c2ccc([N+](=O)[O-])cc2)cc1
 : -11	0.026	-11	-6	9	7	1
O=C(CSc1nc(-c2ccccc2)cs1)N1CCc2ccccc21
 : -8	-0.75	7	-5	9	20	8
CCCCN1C(=O)CC(Sc2ccccc2C(=O)O)C1=O (stereo not given)
 : -10	-0.15	-8	-1	8	22	-1
Cc1nc2sc3c(c2c(=N)n1N)CC(C)(C)OC3
 : 2	-1.3	5	-1	-1	-19	-2
O=C(/C=C/c1ccccc1)N/C(=C/c1ccccc1)C(=O)NCCO
 : 4	-0.25	-3	-7	-3	9	10
Cc1c(Cl)cccc1N1C(=O)C(N2C(=O)c3cccc([N+](=O)[O-])c3C2=O)C1c1cccs1 (stereo not given)
 : 11	0.043	15	-7	-8	-15	-2
COc1ccc2sc3c(=O)[nH]c4ccccc4c3c2c1
 : 9	0.018	17	-7	-9	13	-1
Brc1ccc(CSc2nccn2-c2ccccc2)cc1
 : 13	-0.82	7	-3	-11	0	4
CCOc1ccc(N2C(=O)CC(Sc3nc(-c4cccs4)cc(C(F)(F)F)c3C#N)C2=O)cc1 (stereo not given)
 : 10	1.5	7	-10	-5	12	1
CC(C)C1=Nc2cccc3cccc(c23)N1
 : 13	x	5	-5	-8	8	-4
Cc1ccc(-c2ccc(/C=N/N3C(=O)C4C5C=CC(C6CC56)C4C3=O)o2)c([N+](=O)[O-])c1 (stereo not given)
 : 26	0.92	7	-5	-27	-19	-8
O=S1(=O)CCN2C=Nc3sc4c(c3C2=N1)CCCC4
 : 3	-0.042	6	-7	-3	0	0
Nc1c(C(=O)NCC2CCCO2)c2nc3ccccc3nc2n1-c1ccccc1 (stereo not given)
 : -25	0.45	19	10	25	8	0
CCCc1cc(=O)oc2cc(OCc3nn[nH]n3)ccc12
 : x	-0.27	14	-4	x	-5	-11
CCOc1ccccc1NC(=O)CCn1c(=O)oc2ccccc21
 : 9	-2.2	4	-4	-8	3	3
NS(=O)(=O)c1ccc(CCNC(=O)CSc2ccccc2)cc1
 : -1	-0.96	4	-2	3	8	-6
CCCCCOc1ccc(NC(=O)C(=O)NCCC2=CCCCC2)cc1
 : -7	0.012	-2	-8	11	5	4
C[C@H](NC(=O)NC1CCCc2ccccc21)C(=O)O (stereo not given in full)
 : -12	-2	-3	-4	10	10	9
CCCCOC(=O)Nc1nc2ccccc2s1
 : -8	-0.31	-2	-4	8	-17	-3
COc1c(F)c(F)c(C(=O)O)c(Nc2ccccc2C)c1F
 : 27	x	5	-7	-28	0	-3
CC(=O)Oc1c(S(=O)(=O)c2ccc(C)cc2)c(C)nn1C(C)(C)C
 : -9	0.52	25	-6	7	6	1
CCn1c(Cc2ccccc2)nnc1SCC(=O)c1cccc([N+](=O)[O-])c1
 : 18	1.7	1	-4	-16	19	-3
COc1ccc(NC(=O)CN2C(=O)c3cccc4cccc2c34)c(OC)c1
 : -3	-1.5	8	-4	5	22	2
CCOc1ccccc1N1CN(CC)CNC1=S
 : 0	-1.5	5	-4	-2	7	-9
c1ccc(CN2c3ccccc3-c3nc4ccccc4n3C2c2ccccn2)cc1 (stereo not given)
 : -3	-0.039	43*	2	5	-4	9
O=C(Nc1ccccn1)C(NS(=O)(=O)c1cccc2nsnc12)c1ccccc1 (stereo not given)
 : -15	0.48	5	-3	15	16	-3
Cc1ccc(-c2csc(Cc3nc(-c4cc5ccccc5oc4=O)cs3)n2)cc1
 : -6	-0.21	6	-1	7	5	17
Cc1ccc(/C=N\NC(=O)C2COc3cc4ccccc4cc3O2)o1 (stereo not given)
 : 41	0.97	4	-7	-38	13	-4
Cc1ccc(-c2cc(C(=O)N3CCN(c4ccc(F)cc4)CC3)c3ccccc3n2)o1
 : -2	0.2	19	0	4	19	11
COc1cc2[nH]c(=O)n(CCC(=O)N3CCC(N4CCCCC4)CC3)c(=O)c2cc1OC
 : -2	-1	2	-2	2	-1	-3
O=C(CCn1nc(-c2ccc(Cl)cc2)ccc1=O)N1CCOCC1
 : 10	0.76	24	-5	-11	15	-3
O=C(NCc1ccccn1)c1cccc([N+](=O)[O-])c1
 : -1	-1.2	3	-3	-2	13	-7

Arranged by molar mass (smallest number first): some entries from above.
Results follow in this order: sEH inh	hDAT+cocaine	PostGolgi ctrl	S1P2 agonist	sEH act	S1P2 antag	PostGolgi yeast
COc1c(F)c(F)c(C(=O)O)c(Nc2ccccc2C)c1F
 : 27	x	5	-7	-28	0	-3
CCn1c(Cc2ccccc2)nnc1SCC(=O)c1cccc([N+](=O)[O-])c1
 : 18	1.7	1	-4	-16	19	-3
COc1cc2[nH]c(=O)n(CCC(=O)N3CCC(N4CCCCC4)CC3)c(=O)c2cc1OC
 : -2	-1	2	-2	2	-1	-3

Single records, as listed above. Screens in order: sEH inh	hDAT+cocaine	PostGolgi ctrl	S1P2 agonist	sEH act	S1P2 antag	PostGolgi yeast
CCCCCOc1ccc(NC(=O)C(=O)NCCC2=CCCCC2)cc1 is listed with -7	0.012	-2	-8	11	5	4
Cc1ccc(/C=N\NC(=O)C2COc3cc4ccccc4cc3O2)o1 (stereo not given) is listed with 41	0.97	4	-7	-38	13	-4
NS(=O)(=O)c1ccc(CCNC(=O)CSc2ccccc2)cc1 is listed with -1	-0.96	4	-2	3	8	-6
Cc1ccc(-c2csc(Cc3nc(-c4cc5ccccc5oc4=O)cs3)n2)cc1 is listed with -6	-0.21	6	-1	7	5	17
c1ccc(CN2c3ccccc3-c3nc4ccccc4n3C2c2ccccn2)cc1 (stereo not given) is listed with -3	-0.039	43*	2	5	-4	9

Source: PubChem BioAssay (several laboratories)
